CSC inhib – cancer stem cell viability inhibitors, primary screen, luminescence. inhibition, % at 7.5 µM. AID 2717, 2010. cancer stem cell-like cells viability. 300,000 compounds, 1.1% hits;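 active = mean at 75% or more and at least half the replicates too; inconclusive = mean and replicates disagree; tested in HMLE shEcad cells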;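 note: 0% = median of negative and 100% = median of positive control wells; the first replicate is given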
MT1-MMP act inh – blockers of MT1-MMP proenzyme processing, primary screen, HT1080 RFP-PRO-GFP cells, GFP/RFP fluorescence. GFP/RFP ratio fluorescence, overnight; percent of plate control window, DMSO zero. AID 651647, 2012. 360,000 compounds, 0.061% hits. Matrix metalloproteinase-14 (Homo sapiens), P50281. GFP/RFP ratio change, % at 20 µM;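 active = GFP/RFP ratio change of at least 30% with cell ATP level not reduced by more than half and red fluorescence within 50% of control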; note: strong numbers were not always called active
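Assay system: RFP-PRO-GFP reporter HT1080 cells; read-out basis: GFP/RFP fluorescence ratio; benchmarks: DMSO wells and RFP-L50D-GFP cells; doses: 20 µM single dose, 1% DMSO; schedule: overnight cell settling, then overnight compound exposure, 37 °C, 5% CO2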
Rce1 inh – yeast Rce1p protease inhibitors, primary screen, biochemical, fluorescence, cell-free homogeneous; CAAX prenyl protease 2 (Saccharomyces cerevisiae (strain ATCC 204508 / S288c)), Q03530; yeast membranes, quenched prenylated peptide cleavage fluorescence; calls only; 290,000 compounds, 0.27% hits;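 active = fall in fluorescence gain of 50% or more versus controls, with final raw signal at or below 3038400; inconclusive = same 50% fall but final raw signal above 3038400; inactive = fall in fluorescence gain under 50%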;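 note: plate controls were neutral control wells for no effect and wells lacking membranes for full effect; tested at 10 µM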
Target sequence (Q03530 whole entry, looked up): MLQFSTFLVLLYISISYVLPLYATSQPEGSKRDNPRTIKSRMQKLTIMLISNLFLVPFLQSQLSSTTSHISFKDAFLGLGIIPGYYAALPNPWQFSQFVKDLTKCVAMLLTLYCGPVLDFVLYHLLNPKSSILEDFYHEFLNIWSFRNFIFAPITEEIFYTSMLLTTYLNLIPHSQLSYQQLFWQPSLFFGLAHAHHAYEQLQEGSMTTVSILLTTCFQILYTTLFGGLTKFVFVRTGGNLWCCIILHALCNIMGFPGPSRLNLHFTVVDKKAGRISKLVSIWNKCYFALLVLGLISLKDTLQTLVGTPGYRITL
eIF4H inh – human eIF4H binding inhibitors, primary screen, translation initiation inhibitor project, biochemical, uHTS, fluorescence polarization | eIF4H fluorescence polarization binding assay | inhibition, % at 35 µM | 290,000 compounds, 0.94% hits;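 active = 50% or more with normal probe brightness, or confirmed in later tests; inconclusive = above 50% with abnormal brightness, or retests that disagree; inactive = below 50% or failed in later tests; about a fifth of its hits are not listed in these tables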;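 note: calls also rest on retests at 20 µM and on dose response follow-up; 0% = protein and probe with vehicle and 100% = probe without protein; strong numbers were not always called active; many hits fall short of the cut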
HIV Env fusion – inhibitors of HIV-1 Env-driven cell-cell fusion, primary screen, HeLa-JRFL effector, CEM21 target cells, luciferase; inhibition, % at 12.3 µM; 360,000 compounds, 1.1% hits; AID 651610, 2012;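 active = mean replicate inhibition score of at least 50 and every replicate individually at or above 50; inconclusive = only one of the two criteria met; inactive = mean below 50 and not all replicates reaching 50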;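 note: 0% = plate neutral controls and 100% = maraviroc near 300 nM; one replicate is shown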
PABP FP inh – PABP poly(A) RNA binding inhibitors, primary screen, biochemical, fluorescence polarization, uHTS; inhibition, % at 35 µM; 290,000 compounds, 1% hits; AID 2014, 2009; Polyadenylate-binding protein 1 (Homo sapiens), P11940;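 active = 50% or more with normal probe brightness, or confirmed in later tests; inconclusive = above 50% with abnormal brightness, or retests that disagree; inactive = below 50% or failed in later tests; about a fifth of its hits are not listed in these tables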;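 note: calls also rest on retests at 20 µM and on dose response follow-up; controls were probe without protein and protein plus probe with vehicle; some compounds called inactive have numbers as strong as hits; many hits fall short of the cut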
Target sequence (P11940 whole entry, looked up): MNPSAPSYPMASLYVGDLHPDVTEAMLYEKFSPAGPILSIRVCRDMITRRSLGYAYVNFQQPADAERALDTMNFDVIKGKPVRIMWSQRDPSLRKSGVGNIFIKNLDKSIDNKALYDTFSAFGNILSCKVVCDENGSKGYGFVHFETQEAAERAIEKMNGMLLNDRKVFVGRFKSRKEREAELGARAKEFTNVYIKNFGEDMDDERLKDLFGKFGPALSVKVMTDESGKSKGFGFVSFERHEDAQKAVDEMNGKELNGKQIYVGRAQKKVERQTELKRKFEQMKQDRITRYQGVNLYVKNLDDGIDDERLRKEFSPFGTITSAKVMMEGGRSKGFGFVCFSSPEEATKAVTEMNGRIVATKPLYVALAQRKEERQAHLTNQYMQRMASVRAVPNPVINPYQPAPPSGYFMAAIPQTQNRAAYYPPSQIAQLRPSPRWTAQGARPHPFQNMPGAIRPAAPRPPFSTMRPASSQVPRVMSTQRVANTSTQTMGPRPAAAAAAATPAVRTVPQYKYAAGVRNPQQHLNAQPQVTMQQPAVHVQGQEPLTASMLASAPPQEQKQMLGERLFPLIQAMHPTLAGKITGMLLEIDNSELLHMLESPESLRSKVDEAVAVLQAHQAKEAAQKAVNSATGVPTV
UUG fidelity – modulators of yeast start codon fidelity, primary screen, whole organism, S. cerevisiae, single point, plate reader. S. cerevisiae UUG-firefly luciferase reporter, luminescence/redox ratio. activity score, % at 18.7 µM. 350,000 compounds, 0.13% hits;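 active = replicate mean at a twofold rise or more, about +100% in these data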;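 note: firefly luciferase made from a UUG start codon reports start codon fidelity; reporter light over untreated wells divided by growth signal over untreated wells; some hits fall short of that in this replicate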
eIF4H inh retest – recorded beside eIF4H inh, whose call it bears; inhibition, %; compound at 20 µM; confirmation average;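 mean of two retest wells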
PABP FP inh retest – also measured in PABP FP inh; calls as there; inhibition, %; compound at 20 µM; confirmation repeats;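 mean of two retest wells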
MT1-MMP act inh RFP – second read-out of MT1-MMP act inh, no call of its own (marks repeat the call); RFP signal change, %; measured here: RFP expression control read;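 0 = vehicle wells; hits needed this value within 50% of zero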
* = called active by the depositor; i = inactive; u = inconclusive; x = no result given. A portion of the library; count on the stated rates, not on these rows.

SMILES | CSC inhib | MT1-MMP act inh | MT1-MMP act inh RFP | Rce1 inh | eIF4H inh | HIV Env fusion | PABP FP inh | UUG fidelity | others
Cc1ccc(NC(=O)CCc2nc3ccccc3s2)c(O)c1 | -3 | -2 | 0 | i | 2 | 10 | 16 | x
O=C(c1n[nH]c(=O)c2ccccc12)N1CCN(C2c3ccccc3-c3ccccc32)CC1 | 2 | -9 | -15 | i | -9 | 34 | -9 | -5
CCCCC(=O)N/N=C(\C)c1cccc(NC(=O)C2CC2)c1 | -1 | 1 | -1 | i | -4 | 7 | 13 | x
COc1cccc(/C=N/Nc2nc(C)cc(=O)[nH]2)c1OC | -3 | 3 | 0 | i | 1 | 6 | 3 | -30
COc1ccc(C2C(=O)N(C3CCCCC3)CC(=O)N2C2CCCC2)cc1 (configuration not stated) | -6 | 2 | -3 | i | 2 | -5 | -2 | -1
Cc1ccc2c(c1)N(CC(=O)NCCC1=CCCCC1)C(=O)c1cccnc1O2 | x | 3 | 1 | i | 4 | -11 | 0 | -5
COc1ccc([C@H]2CC(=O)C=C(c3ccc(OC(F)(F)F)cc3)C2)cc1OC | 13 | 6 | -13 | x | x | 6 | x | -19
Cc1ccc(S(=O)(=O)CCC(=O)OCC(=O)NCC(=O)Nc2c(C)cc(C)cc2C)cc1 | x | 2 | 4 | i | x | 19 | x | x
C(=N\N1CCN(c2ccccn2)CC1)/c1cccc2ccccc12 | 0 | -3 | -9 | i | 2 | 1 | 2 | 8
Cc1cc(C)nc(Nc2nc3ccccc3o2)n1 | 0 | -7 | -7 | i | 2 | -10 | 5 | -16
CC(=O)Nc1ccc(NC(=O)c2cc(-c3ccc(C)c(C)c3O)n[nH]2)cc1 | 29 | 2 | -1 | i | 1 | -6 | -2 | -13
O=S(=O)(N1CCCCC1)N1CCN(S(=O)(=O)N2CCCCC2)CC1 | x | 0 | 1 | i | -2 | x | -4 | -10
Cn1nnnc1SCC(=O)Nc1ccccn1 | 2 | 2 | 4 | i | 5 | -60 | -2 | x
Cc1cc2oc(=O)cc(-c3ccccc3)c2c(C)c1-c1ccc(N(C)C)cc1 | x | -1 | -5 | x | x | 12 | x | -22
Cc1ccc2nsnc2c1NC(=O)c1ccc2c(c1)OCCO2 | -12 | 6 | 6 | i | -2 | x | 6 | -8
Cc1cc(C)c(NC(=O)CSc2nnc(CNC(=O)c3ccccc3F)o2)c(C)c1 | -14 | -5 | 4 | i | -5 | -3 | 5 | -5
O=C(O)C1CC=CCC1C(=O)Nc1cccc([N+](=O)[O-])c1 (configuration not stated) | -9 | -1 | 0 | i | 4 | 8 | -8 | x
COc1ccc2nc3oc(C(=O)N4CCCCC4)cc3cc2c1 | 7 | -2 | -2 | i | 9 | x | 4 | -15
Cc1ncoc1C(=O)Nc1ccc(Oc2ccccc2)cc1 | -3 | 0 | -11 | i | 3 | -10 | 5 | -9
CCC1(c2ccc(F)cc2)NC(=O)N(CC(=O)N2c3ccccc3NC(=O)CC2C)C1=O (configuration not stated) | x | 2 | 0 | x | x | 2 | x | 10
O=S(=O)(c1ccc(F)c(Cl)c1)N1CCCC1 | -6 | 4 | 1 | i | 1 | x | -8 | -8
CS(=O)(=O)N1CCN(C(=O)CCc2ccccc2)CC1 | x | -5 | -3 | i | -9 | 5 | -2 | 5
CCCC1CC(C(=O)Nc2ccccc2)C(=O)O1 (configuration not stated) | 19 | -2 | -4 | i | x | 6 | x | 5
CCC(C)c1ccc(NC(=S)NCc2cccs2)cc1 (configuration not stated) | 5 | 5 | -2 | i | -6 | -47 | 4 | -35
COc1ccc(OC)c(CN2CCC(C(=O)N3CCOCC3)CC2)c1 | -6 | 1 | -2 | i | -4 | 5 | -3 | -17

Carrying on:
SMILES | CSC inhib | MT1-MMP act inh | MT1-MMP act inh RFP | Rce1 inh | eIF4H inh | HIV Env fusion | PABP FP inh | UUG fidelity | others
CSc1nc(N)nc2c1ncn2CC(=O)NCCCN1CCCC1=O | x | 5 | 11 | x | x | 14 | x | -18
Cc1ccc(C(=O)NC(=S)NNC(=O)CC#N)cc1 | -7 | -2 | -2 | x | -6 | -175 | -1 | x
COc1cccc(/C=C2\SC(=S)N(N3CCOCC3)C2=O)c1OC | -11 | 2 | 1 | i | -11 | -2 | -2 | x
CCC(CC)C(=O)Nc1nnc(SCC(=O)NC2CC2)s1 | -3 | -1 | 0 | i | 7 | 21 | 9 | -10
O=C(NCc1ccco1)C1CC(=O)N(c2ccc(F)cc2)C1 (configuration not stated) | -7 | 1 | 7 | i | -3 | x | -3 | -9
Cc1ccccc1NC(=O)CN1CCN(c2ccc(F)cc2)CC1 | x | 1 | -3 | x | x | 10 | x | -3
CCOC(=O)c1cc2c(nc1NC(=S)NCc1ccccc1)CCCC2 | -6 | -3 | -6 | i | 6 | -23 | 4 | x
C/C(=C\CCC1(C)C2CC3C(C2)C31C)C(=O)O (configuration not stated) | -1 | 1 | 2 | i | -2 | x | 0 | -22
CCC(C)n1c(SCC(=O)NC2CC2)nc2ccccc2c1=O (configuration not stated) | x | 3 | 6 | x | x | 0 | x | 6
CCn1c(SCC(=O)NC2CCCC2)nnc1-c1ccncc1 | -15 | -1 | 3 | i | -6 | 2 | -10 | -14
Cc1ccc(CC(CC(=O)O)C(=O)NC2CCCCC2)cc1 (configuration not stated) | -3 | 6 | 7 | i | 1 | -33 | -1 | -11
O=C(c1ccc(S(=O)(=O)Nc2ccc(F)cc2)cc1)N1CCN(c2ccccn2)CC1 | 4 | -3 | -20 | i | -6 | 13 | 6 | x
Cc1ccc(S(=O)(=O)N2CCN(S(=O)(=O)N3CCOCC3)CC2)cc1 | -9 | 8 | 0 | i | -3 | x | -6 | -10
Cc1cs/c(=N/C(=S)Nc2ccccc2)n1C | 4 | 1 | 2 | i | -2 | -79 | 2 | x
CC(C)C(C(=O)NC1CCCC1)N(Cc1ccco1)C(=O)CNS(=O)(=O)c1ccccc1 (configuration not stated) | 17 | -5 | -2 | i | 2 | 24 | 10 | -15
Cc1sc2ncn3ncnc3c2c1C | -15 | -9 | -2 | i | -2 | -415 | -1 | -23
CCN1C(=O)/C(=C2/C=CC=CN2C)OC1=S | -19 | 3 | 5 | i | 84 | 16 | 4 | -16 | eIF4H inh retest=-5;PABP FP inh retest=0
Cc1ccc(-c2csc(NC(CO)c3nc4ccccc4n3CCOCCO)n2)cc1 (configuration not stated) | -13 | -4 | -6 | i | x | -15 | x | 6
O=C(NC1CC1)C1CCN(C2CCN(Cc3ccccc3C(F)(F)F)CC2)CC1 | 2 | 2 | 3 | i | -3 | -11 | -4 | -15
COc1ccc(CN(C)CC2CCCN(CCc3ccc(Cl)cc3)C2)cc1OC (configuration not stated) | 36 | 9 | 0 | i | -4 | 20 | 18 | -12
COc1ccc(C(C)(C)C)cc1NC(=O)COc1ccc(-c2nnco2)cc1 | -4 | -2 | -14 | x | x | 28 | x | -20
COc1ccc(CC(=O)Nc2nc(-c3ccc(F)c(F)c3)cs2)cc1OC | 28 | 1 | -29 | i | 2 | 23 | 6 | 1
CCOC(=O)c1cnc2ccc(C(=O)OC)cc2c1Nc1cccc(C(=O)O)c1 | 0 | 8 | 5 | x | 1 | -20 | 2 | x
CN(C(=O)CN1C(=O)CCSc2ccc(S(=O)(=O)N3CCCC3)cc21)c1ccccc1 | -10 | 1 | 2 | i | -3 | -6 | -4 | -3
COc1cccc(/C=N/NC(N)=S)c1OS(=O)(=O)c1ccccc1 | -20 | 2 | -2 | i | -4 | 7 | -2 | -19

Among those listed so far, 2 have a Cl atom.
SMILES | CSC inhib | MT1-MMP act inh | MT1-MMP act inh RFP | Rce1 inh | eIF4H inh | HIV Env fusion | PABP FP inh | UUG fidelity | others
O=S(=O)(c1ccc(F)c(Cl)c1)N1CCCC1 | -6 | 4 | 1 | i | 1 | x | -8 | -8
COc1ccc(CN(C)CC2CCCN(CCc3ccc(Cl)cc3)C2)cc1OC (configuration not stated) | 36 | 9 | 0 | i | -4 | 20 | 18 | -12

(listing goes on)
SMILES | CSC inhib | MT1-MMP act inh | MT1-MMP act inh RFP | Rce1 inh | eIF4H inh | HIV Env fusion | PABP FP inh | UUG fidelity | others
C/C(CC(C)C)=N\Nc1ccc(S(N)(=O)=O)cc1[N+](=O)[O-] | 2 | 11 | -9 | x | 1 | 5 | -4 | 5
CS(=O)(=O)Oc1ccc2c(c1)O/C(=C\c1cccnc1)C2=O | -3 | -4 | -4 | x | -4 | -13 | -10 | -12
Cc1ccc(S(=O)(=O)Nc2cccc(/C=C/C(=O)O)c2)cc1 | -6 | -1 | 1 | i | 10 | 9 | -2 | -1
CC(=O)CSc1nnc(-c2ccncc2)n1C | -8 | 3 | 10 | i | 1 | -13 | 4 | -17
CCN(c1ccccc1)S(=O)(=O)c1cc(C(=O)Oc2ccc3c(C)cc(=O)oc3c2)ccc1C | -18 | -4 | 2 | i | -4 | 12 | 2 | -2
Brc1ccc(-c2csc(N/N=C/c3ccc4c(c3)OCO4)n2)cc1 | 4 | -1 | -1 | i | -4 | 12 | 8 | x
O=C(O)C1CCCCC1C(=O)Nc1ccccc1F (configuration not stated) | -9 | 6 | 3 | i | 0 | -2 | -3 | -23
O=C(NCc1ccccc1)C1=C[C@H](c2ccccc2)C[C@H](OCc2ccc(CO)cc2)O1 | x | 2 | 1 | i | x | -15 | x | -8
Cc1ccc(NC(=O)[C@H](Cc2ccccc2)NC(=O)C2CCNCC2)cc1 | -1 | 6 | 8 | i | x | -13 | x | -5
Cc1cccc(NC(=S)NC(=O)C(c2ccccc2)c2ccccc2)n1 | -9 | 5 | 1 | i | x | x | x | -12
CC(C)N(C(=O)Cn1cc(SCC(=O)NCC2CCCO2)c2ccccc21)C(C)C (configuration not stated) | 1 | -1 | -1 | i | -4 | 1 | -3 | 3
COc1ccccc1OCCCCCCN1CCOCC1 | 23 | 1 | 3 | i | 7 | 5 | -11 | x
O=C(NCC1CCCO1)c1ccc2c(c1)N(Cc1ccc(F)cc1Cl)C(=O)CS2 (configuration not stated) | -6 | 0 | -1 | i | x | 1 | x | -7
O=C(O)CCC(=O)N(Cc1ccco1)c1nc(-c2ccccc2)cs1 | 8 | 1 | 4 | i | 1 | -8 | 3 | -13
Cc1ccc(NC(=O)CNC(=O)COc2ccccc2)nc1 | -8 | 1 | 7 | i | x | 7 | x | -12
CCN(CC(=O)Nc1cc(Cl)ccc1C)C(=O)CCS(=O)(=O)c1ccc(C)cc1 | 9 | 5 | 0 | i | x | 14 | x | -7
CCCCCCCCOc1ccc(C2OC34CCCCC3C(C#N)(C#N)C2(C#N)C(=N)O4)cc1 (configuration not stated) | -4 | -34 | 9 | i | u | x | u | -15
CC(C)(C)C(=O)Nc1ccc(C(=O)N/N=C/c2ccccc2OC(=O)c2ccccc2)cc1 | -11 | 3 | -1 | i | -8 | x | -1 | -11
CC(C)(C)NC(=O)CCCCCCCC(=O)NC(C)(C)C | 19 | -8 | 5 | i | -9 | 10 | -7 | x
Cc1ccnc(NC(=O)C2CCN(S(=O)(=O)c3cccc4nsnc34)CC2)c1 | -13 | 0 | -3 | i | 0 | -2 | -8 | 11

Screening data (PubChem)
